# Compound activity deposited in PubChem by The Scripps Research Institute Molecular Screening Center.
# OX1R antag-1 – antagonists of human orexin 1 receptor (OX1R); inhibition, % at 6.6 µM; Orexin/Hypocretin receptor type 1 (Homo sapiens), O43613; hit rate 1.8% among 330,000; OX1R-expressing cells, FRET antagonist read-out; AID 485270, 2010; in the data active = inhibition mostly above about 38%, no sharp cut-off; inactive = mostly below about 40%;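 note: 0% = agonist challenge alone and 100% = reference antagonist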
# Target sequence (O43613 whole entry, looked up): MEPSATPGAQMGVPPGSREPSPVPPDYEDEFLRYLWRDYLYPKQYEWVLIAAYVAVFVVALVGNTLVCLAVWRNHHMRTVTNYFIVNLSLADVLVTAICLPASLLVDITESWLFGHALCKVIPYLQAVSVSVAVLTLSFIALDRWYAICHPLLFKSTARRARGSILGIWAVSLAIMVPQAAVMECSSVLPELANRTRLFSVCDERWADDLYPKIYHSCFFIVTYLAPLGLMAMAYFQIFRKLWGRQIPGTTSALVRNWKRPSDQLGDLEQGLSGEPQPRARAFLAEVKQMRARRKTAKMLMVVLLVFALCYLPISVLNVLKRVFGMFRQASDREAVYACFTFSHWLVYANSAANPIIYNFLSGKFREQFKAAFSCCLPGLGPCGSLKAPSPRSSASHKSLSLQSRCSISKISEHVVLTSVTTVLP
# OX1R antag-2 – OX1R (HCRTR1) antagonists, primary screen, fluorescence, CHO/OX1R cells, Fluo-8 calcium, orexin A; Fluo-8 calcium fluorescence; inhibition, % at 5 µM; hit rate 0.43% among 330,000; AID 434989, 2010;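 active = inhibition above its plate's threshold, mean inhibition of all tested compounds on the plate plus 3 SD, cut at about 37% in these data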;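 note: 0% = orexin A challenge wells and 100% = SB-334867-A antagonist wells; not every result past the cut was called active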
# The depositor's hits bear a star.
Molecule	OX1R antag-1	OX1R antag-2
O=c1[nH]c(-c2ccccc2)nc2sc(-c3ccccc3)cc12	35	4
COc1ccc(CC(=O)Nc2ccc3c(c2)OCO3)cc1S(=O)(=O)N1CCOCC1	11	-26
CC(=O)NS(=O)(=O)c1ccc(NC(=O)c2cc(-c3ccc(C)c(C)c3)nc3ccccc23)cc1	14	-10
CS(=O)(=O)c1ccc(Cl)c(NC(=O)CSc2n[nH]c(N)n2)c1	9	-13
CCCCn1c(N)c(N(CC)C(=O)c2cc(Br)ccc2Cl)c(=O)[nH]c1=O	5	-19
Cc1ccc(S(=O)(=O)NCCC(=O)N2CCCCCCC2)cc1	11	-18
CC12CN3CC(C)(CN(C1)C3c1ccc(F)cc1)C2 (stereo not given)	5	-12
CN1CCN(CCc2cn3ncc(C#N)c3nc2-c2ccc(F)cc2)CC1	12	-23
COc1ccc(N2CCN(C(=O)CCCCn3c(=O)[nH]c4ccsc4c3=O)CC2)cc1	17	-8
COc1ccc(CC(NC(C)=O)C(=O)NC2CCN(C(=O)c3cnccn3)CC2)cc1 (stereo not given)	10	-17
Cc1cnc(N)c2c(=O)oc3ccccc3c12	21	-22
CCOCCCNC(=O)c1ccc2c(c1)ncn2-c1ccc(C)cc1C	7	-1
Cc1ccccc1-c1nc(CN2CCC(C(=O)NCc3cccs3)CC2)c(C)o1	-1	-30
O=C(Nc1ccc(F)cc1F)C1CCN(C(=O)c2ccc(Br)cc2)CC1	11	14
CN(CC(=O)NC1CC(C)(C)NC(C)(C)C1)S(=O)(=O)c1cc(Cl)ccc1Cl	5	-17
Cc1cc(=O)[nH]c2nnnn12	17	5
COCCN(C(=S)Nc1cc(C)cc(C)c1)C(C)c1cccs1 (stereo not given)	6	-9
COc1cccc(/C=N/n2cnc3c(cnn3-c3ccccc3)c2=O)c1	3	-18
Cc1ccccc1-c1noc(-c2cccs2)n1	12	7
Cc1c(C#N)c(N=CN(C)C)c(C(=O)c2ccc(Br)cc2)n1-c1ccccc1	9	-21
CCOc1ccccc1N(CC(=O)Nc1ccc2c(c1)OCCO2)S(C)(=O)=O	21	-20
CCOc1ccc2c(C)cc(=O)oc2c1OCC	14	-6
COc1cc(C(=O)N2CCN(C(=O)c3ccccc3)CC2)cc(OC)c1OC	13	-9
Cc1ccc(-c2nc(SC(C)C(=O)N3CCOCC3)n[nH]2)cc1 (stereo not given)	16	-10
C=CCc1cc(/C=C2/NC(=O)N(CC(=O)OC)C2=O)cc(OC)c1O	44	-22

# Additional entries.
Molecule	OX1R antag-1	OX1R antag-2
CCCCOc1ccc(N2C(N)=NC(N)=NC23CCCCC3)cc1	12	10
COc1ccccc1N1CCN(C(=O)c2cc3c(s2)CCCCC3)CC1	9	-42
COc1ccc(C)cc1NC(=O)CSc1nnc(-c2cc(C)[nH]n2)n1N	-2	-10
CCOC(=O)c1ccc(Nc2nnc3nc(C)cc(C)n23)cc1	14	-16
CSc1ccccc1C(=O)C1CCCN(S(=O)(=O)N(C)C)C1 (stereo not given)	15	-22
CN(CC(=O)Nc1ccccc1Cl)C(=O)CSc1nnc(N)s1	4	-15
O=C(Nc1ccccc1)C1=C[C@H](c2ccc3c(c2)OCO3)C[C@H](OCc2ccc(CO)cc2)O1	28	-23
CC1=C(C(=O)N2CCOCC2)C(c2ccc(O)cc2)NC(=S)N1 (stereo not given)	13	-7
COc1cccc(N(CC(=O)NC2CCCC2)C(=O)CCC(=O)Nc2nccs2)c1	23	-11
COc1ccccc1C(=O)NNS(=O)(=O)c1ccc(F)cc1	-3	-9
CC(CCc1ccccc1)NC(=O)COC(=O)C1=COCCO1 (stereo not given)	5	-10
NS(=O)(=O)c1cc(C(=O)OC2CCOC2=O)ccc1Cl (stereo not given)	-1	-4
CCCC(O)(c1ccc(OC)cc1)C(CN1CCOCC1)c1ccc(Cl)cc1 (stereo not given)	-5	-43
COc1ccc(/C=C/c2ccccc2)cc1[C@H]1[C@@H]2C=CCC[C@@]2(C)C(=O)N1Cc1ccccc1	15	-51
COc1ccc(/C=C/C(=O)OC(C)CN2CCOCC2)cc1 (stereo not given)	3	-7
C/C(=N\NC(=O)c1c(Cl)c(C)nn1C)c1cccc(NC(=O)c2cccc(F)c2)c1	14	-7
CN(C)S(=O)(=O)c1ccc(C(=O)Nc2ccccc2[N+](=O)[O-])cc1	17	-14
Cc1ccnc(NC(=O)c2sc3ccccc3c2Cl)c1	0	-5
c1ccc(Cc2nnc3sc(Nc4ccccc4)nn23)cc1	18	7
O=C(Nc1ccc(NC(=O)c2ccccn2)cc1)C(=O)Nc1ccc2c(c1)OCCO2	12	-20
COc1nc(-c2ccc3c(c2)OCO3)n(-c2ccc(NC(=O)CSc3ccccc3)cc2)n1	8	10
CCN(CC)CCn1c(C)nc2ccccc21	10	-5
CC(OC(=O)c1ccncc1)C(=O)Nc1cccc([N+](=O)[O-])c1 (stereo not given)	28	-7
CCOc1ccc(-n2c(O)c(/C=N/Nc3nnc(C)c(=O)[nH]3)c3ccccc3c2=O)cc1	5	-16
CCCCn1c(NCCN(C)C)nc2c1c(=O)[nH]c(=O)n2C	20	1

# Next part.
Molecule	OX1R antag-1	OX1R antag-2
CC(C)CCNC(=O)CCn1c(=S)oc2ccccc21	5	-8
O=C(Nc1cccc2ccccc12)C12CC3CC(C1)CC(n1cnc([N+](=O)[O-])n1)(C3)C2	13	-24
COc1cc(OC)c(N2CC34C=CC(O3)C(C(=O)O)C4C2=O)cc1Cl (stereo not given)	-14	-15
CC(C)c1ccc(NC(=O)CNC(=O)Cn2ccc3ccccc3c2=O)cc1	3	-9
Cc1ccc(-c2nn3c(C)nnc3c3ccccc23)cc1S(=O)(=O)NCc1ccccc1	5	-8
COc1ccccc1/C=C/C=N/NC(=O)CN1CCN(S(=O)(=O)c2ccc(C)cc2)CC1	-1	-38
COc1cc(CCC(=O)OCC(=O)Nc2c(Cl)cccc2Cl)cc(OC)c1OC	15	-17
CNc1c([N+](=O)[O-])ncn1C	19	-4
Cc1nn(C)c(Sc2ccccn2)c1[N+](=O)[O-]	7	-2
COc1ccccc1-n1c(SCC(=O)NCc2ccc3c(c2)OCO3)nc2cc([N+](=O)[O-])ccc21	12	2
COCCC(=O)N1CCC(Oc2ccc(C(=O)NCc3cc(C)n(C)n3)cc2)CC1	12	-5
Cc1cc(N2C(=O)C(O)=C(C(=O)c3ccco3)C2c2cccc(Cl)c2)no1 (stereo not given)	10	-6
CCc1cc2c(=O)nc3n(c2s1)Cc1ccccc1/C3=C(/O)c1ccc(F)cc1	39	-35
CCNS(=O)(=O)c1ccc2c(c1)NCC2	22	-4
O=C(Nc1ccccc1[N+](=O)[O-])c1cc(S(=O)(=O)N2CCOCC2)cs1	34	5
O=C(CSc1nnc(CNc2ccccc2)o1)N1CCN(C(=O)c2ccco2)CC1	-4	5
COc1ccc(NS(=O)(=O)c2cccc(C(=O)N3CCN(Cc4ccc5c(c4)OCO5)CC3)c2)cc1	13	-22
CCOc1ccccc1N1CCN(CC(=O)Nc2nnc(CC)s2)CC1	6	-30
Cc1ccc(Cc2nnc(SCC(=O)Nc3ccccc3)n(N)c2=O)cc1	31	-29
CC1=CC(C/C(C)=C/COc2ccc3ccc(=O)oc3c2)OC1=O (stereo not given)	4	-15
COC(CNC(=O)c1ccc(N2CCCC2=O)cc1)OC	-2	-10
C=C1c2c(Cl)ccc(O)c2C(O)=C2C(=O)[C@]3(O)C(O)=C(C(N)=O)C(=O)[C@@H](N(C)C)[C@@H]3[C@@H](O)C12 (stereo not given in full)	20	3
CCOC(=O)c1c(NC(=O)CSc2ncn[nH]2)sc(C(=O)NC)c1C	9	-11
CCOC(=O)c1cccc(NC(=O)C2CCC(CNc3c(N4CCOCC4)c(=O)c3=O)CC2)c1 (stereo not given)	6	-21
CC(=O)Nc1ccc(S(=O)(=O)Nc2nnc(C(C)(C)C)s2)cc1	3	-15

# Among those listed so far, two contain a furan ring, fused or not.
Molecule	OX1R antag-1	OX1R antag-2
Cc1cc(N2C(=O)C(O)=C(C(=O)c3ccco3)C2c2cccc(Cl)c2)no1 (stereo not given)	10	-6
O=C(CSc1nnc(CNc2ccccc2)o1)N1CCN(C(=O)c2ccco2)CC1	-4	5

# Later entries:
Molecule	OX1R antag-1	OX1R antag-2
CC(=O)NC12CC3CC(C1)CC(C(=O)N1CCN(S(=O)(=O)c4cccc(F)c4)CC1)(C3)C2	10	-11
O=C(COC(=O)/C=C/c1cccc(Cl)c1)NCCc1ccccc1	16	-3
CC(=O)Nc1ccc(S(=O)(=O)Oc2ccc(/C=C3\SC(N)=NC3=O)cc2)cc1	17	-6
CCCSc1cc(=O)n(-c2ccc(F)cc2)nc1C(=O)OCC	22	-21
c1ccc(-c2cn3nc4c(nc3n2)CCCC4)cc1	73	-18
CC(OC(=O)CNC(=O)c1ccc2ccccc2c1)C(=O)N(C)C1CCCCC1 (stereo not given)	14	-24
Cc1ccn2c(-c3csc(NCc4ccco4)n3)c(C)nc2c1	12	-8
O=C(O)c1cc(O)c2c(c1)C(=O)c1cc(O)cc(O)c1C2=O	31	5
CN=C1c2ccccc2CN1c1cccc(C(=O)OC)c1	27	-15
COc1ccc(CSc2nncn2N)cc1Br	22	1
c1ccc2[nH]c(CN3CCCCC3)nc2c1	27	-10
CCn1c(=O)n(CC)c2cc([N+](=O)[O-])ccc21	29	-9
CC(=O)c1ccc(Cc2ncc(C(F)(F)F)cc2Cl)s1	14	-27
CC1CCN(c2nnc(N3CCC(C)CC3)c3ccccc23)CC1	14	-20
CSc1nc(C)cc(OCC(=O)N2CCOCC2)n1	18	11
COc1cccc(C(=O)NC(=S)Nc2ccc3[nH]c(=O)[nH]c3c2)c1	11	-8
COc1cc(/C=C2/NC(=O)N(CC(=O)Nc3cccc(C)c3)C2=O)ccc1OCC(N)=O	16	2
O=C(O)CSc1nnc(-c2ccncc2)n1-c1ccc(Cl)cc1	3	3
CC1CCN(c2nc(NCc3ccco3)nc(N)c2[N+](=O)[O-])CC1	11	-39
Cc1ccc(C)c(NC(=O)Cc2coc3cc4c(cc23)CCC4)c1	20	-24
COc1ccccc1N1CCN(C(c2cc3cc(C)ccc3[nH]c2=O)c2nnnn2C2CCCC2)CC1 (stereo not given)	10	-16
O=C(NCc1ccco1)c1ccccc1F	0	6
CC1(C)CC2CC(C)(CN2C(=O)Cc2ccccc2)C1 (stereo not given)	25	-7
CCc1ccc(-c2cc(C)no2)cc1S(=O)(=O)Nc1cc(C)ccn1	3	5
CC(=O)C1=C(c2ccccc2)OC(N)=C(C#N)C1c1ccccc1F (stereo not given)	31	-4

# Remaining list, next part
Molecule	OX1R antag-1	OX1R antag-2
CC1CCN(c2ccc3nnc(CCC(=O)NCCCOC(C)C)n3n2)CC1	-6	-21
N/C(=N\c1nc2c(c(=O)[nH]1)CCCC2)Nc1ccccc1Sc1ccccc1	4	-35
CSc1nc(O)c(C(c2ccc(O)cc2)c2c(O)nc(SC)[nH]c2=O)c(=O)[nH]1	2	6
COC(=O)N/N=C\c1cc(Br)ccc1OCc1ccccc1	15	-20
Cn1c(=O)oc2cc(S(=O)(=O)Nc3cccc(C(=O)O)c3)ccc21	7	-12
c1cc2ccc3ccc(CN4CCOCC4)c4ccc(c1)c2c34	8	-23
Cc1cccc(-n2c(Cc3ccccc3)nnc2SCc2ccc([N+](=O)[O-])cc2)c1	14	-23
COc1cc(OC)cc(N2CC(C)(C)C2=O)c1	9	-17
CCCCN(C(=O)c1ccc(N(C)S(=O)(=O)c2ccc(C)cc2)cc1)c1c(N)n(CCCC)c(=O)[nH]c1=O	10	2
NC(=O)C1(N2CCCCC2)CCN(C2CC(=O)NC2=O)CC1 (stereo not given)	17	-12
COc1ccc(-n2c(=O)c3ccccc3n(CC(=O)Nc3cc(C)on3)c2=O)cc1OC	7	2
CCOC(=O)CSCc1cn2cc(Cl)ccc2n1	6	-3
O=C(Nc1ccc(Cl)cc1Cl)N1CCN(c2ncccn2)CC1	9	6
O=C(CCS(=O)(=O)c1ccccc1Cl)NCc1ccc(F)cc1	6	-16
COC(=O)c1sc(-c2ccccc2)cc1NC(=O)c1cc(OC)cc(OC)c1	13	4
COc1ccc(OC)c(C2C=C(c3ccc(C)c(C)c3)Nc3nnnn32)c1 (stereo not given)	9	-41
COCC(=O)N(Cc1cc2ccccc2[nH]c1=O)c1ccc(OC)cc1	5	-2
Cc1cc(Sc2nnc(/N=C/N(C)C)s2)c2ccccc2n1	8	-15
CN(C)S(=O)(=O)c1ccc(N2CCCC2)c(C(=O)NNC(=O)COc2ccccc2Cl)c1	18	-33
Cc1ccc(C)c(S(=O)(=O)N/N=C/c2ccc(F)cc2)c1	11	-6
Cc1cccc(-n2nnc3c(=O)n(CC(=O)Nc4cc(C)on4)cnc32)c1	14	-7
CCn1cc(C(=O)N[C@H](C(=O)NC(C)(C)CO)C(C)C)c(=O)c2cc3c(cc21)OCO3	11	12
CCOC(=O)C1CCN(S(=O)(=O)c2c(C)[nH]c(C)c2C(=O)N2CCCC2)CC1	12	-2

# In a second layout: results already given.
OX1R antag-1	OX1R antag-2	smiles
3	-15	CC(=O)Nc1ccc(S(=O)(=O)Nc2nnc(C(C)(C)C)s2)cc1
10	-11	CC(=O)NC12CC3CC(C1)CC(C(=O)N1CCN(S(=O)(=O)c4cccc(F)c4)CC1)(C3)C2
16	-3	O=C(COC(=O)/C=C/c1cccc(Cl)c1)NCCc1ccccc1

# These rows are one share of the data; most or all hits stand in other tables.
